CSC inhib = cancer stem cell viability inhibitors, primary screen, luminescence; 300,000 compounds, 1.1% hits; cancer stem cell-like cells viability; inhibition, % at 7.5 µM;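 active = mean at 75% or more and at least half the replicates too; inconclusive = mean and replicates disagree; tested in HMLE shEcad cells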;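 also: 0% = median of negative and 100% = median of positive control wells; the first replicate is given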
Yeast UUG start = modulators of yeast start codon fidelity, primary screen, whole organism, S. cerevisiae, single point, plate reader | S. cerevisiae UUG-firefly luciferase reporter, luminescence/redox ratio | activity score, % at 18.7 µM | 350,000 compounds, 0.13% hits;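 active = replicate mean at a twofold rise or more, about +100% in these data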;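 also: firefly luciferase made from a UUG start codon reports start codon fidelity; reporter light over untreated wells divided by growth signal over untreated wells; some hits fall short of that in this replicate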
PABP polyA inh = PABP poly(A) RNA binding inhibitors, primary screen, biochemical, fluorescence polarization, uHTS. Polyadenylate-binding protein 1 (Homo sapiens), P11940. inhibition, % at 35 µM. 290,000 compounds, 1% hits;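 active = 50% or more with normal probe brightness, or confirmed in later tests; inconclusive = above 50% with abnormal brightness, or retests that disagree; inactive = below 50% or failed in later tests; about a fifth of its hits are not listed in these tables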;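 also: calls also rest on retests at 20 µM and on dose response follow-up; controls were probe without protein and protein plus probe with vehicle; some compounds called inactive have numbers as strong as hits; many hits fall short of the cut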
Target sequence (P11940 whole entry, looked up): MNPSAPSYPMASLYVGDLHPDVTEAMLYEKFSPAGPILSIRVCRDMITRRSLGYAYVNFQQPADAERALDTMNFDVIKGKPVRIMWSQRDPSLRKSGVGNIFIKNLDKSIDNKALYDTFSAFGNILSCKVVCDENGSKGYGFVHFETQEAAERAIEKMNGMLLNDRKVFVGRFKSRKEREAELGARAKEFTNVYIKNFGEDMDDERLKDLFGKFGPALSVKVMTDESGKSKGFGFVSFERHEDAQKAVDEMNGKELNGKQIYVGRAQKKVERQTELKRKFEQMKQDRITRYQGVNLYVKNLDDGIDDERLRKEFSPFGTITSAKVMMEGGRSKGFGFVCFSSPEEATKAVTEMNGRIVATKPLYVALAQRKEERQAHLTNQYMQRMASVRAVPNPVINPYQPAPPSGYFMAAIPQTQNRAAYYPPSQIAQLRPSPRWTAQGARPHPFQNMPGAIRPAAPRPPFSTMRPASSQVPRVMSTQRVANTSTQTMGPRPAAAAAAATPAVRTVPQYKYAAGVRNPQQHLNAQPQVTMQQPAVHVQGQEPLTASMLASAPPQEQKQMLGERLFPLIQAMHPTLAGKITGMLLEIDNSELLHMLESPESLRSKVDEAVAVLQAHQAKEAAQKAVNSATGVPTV
HIV Env fusion = inhibitors of HIV-1 Env-driven cell-cell fusion, primary screen, HeLa-JRFL effector, CEM21 target cells, luciferase | inhibition, % at 12.3 µM | 360,000 compounds, 1.1% hits | AID 651610, 2012;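 active = mean replicate inhibition score of at least 50 and every replicate individually at or above 50; inconclusive = only one of the two criteria met; inactive = mean below 50 and not all replicates reaching 50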;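 also: 0% = plate neutral controls and 100% = maraviroc near 300 nM; one replicate is shown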
eIF4H inh = human eIF4H binding inhibitors, primary screen, translation initiation inhibitor project, biochemical, uHTS, fluorescence polarization. Eukaryotic translation initiation factor 4H (Homo sapiens), Q15056. eIF4H fluorescence polarization binding assay. inhibition, % at 35 µM. 290,000 compounds, 0.94% hits. AID 2012, 2009;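 active = 50% or more with normal probe brightness, or confirmed in later tests; inconclusive = above 50% with abnormal brightness, or retests that disagree; inactive = below 50% or failed in later tests; about a fifth of its hits are not listed in these tables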;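 also: calls also rest on retests at 20 µM and on dose response follow-up; 0% = protein and probe with vehicle and 100% = probe without protein; strong numbers were not always called active; many hits fall short of the cut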
MT1-MMP act inh = blockers of MT1-MMP proenzyme processing, primary screen, HT1080 RFP-PRO-GFP cells, GFP/RFP fluorescence; Matrix metalloproteinase-14 (Homo sapiens), P50281; GFP/RFP ratio fluorescence, overnight; percent of plate control window, DMSO zero; GFP/RFP ratio change, % at 20 µM; 360,000 compounds, 0.061% hits;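 active = GFP/RFP ratio change of at least 30% with cell ATP level not reduced by more than half and red fluorescence within 50% of control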; also: strong numbers were not always called active
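Assay system: HT1080 RFP-PRO-GFP cells | Dosing: 20 µM single dose, 1% DMSO | Incubation: Cells overnight before dosing, compound overnight, 37 °C, 5% CO2 | Evaluation: GFP/RFP fluorescence ratio | Control set: DMSO-only wells and HT1080 RFP-L50D-GFP cell wells as references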
Rce1 inh = yeast Rce1p protease inhibitors, primary screen, biochemical, fluorescence, cell-free homogeneous; calls only; CAAX prenyl protease 2 (Saccharomyces cerevisiae (strain ATCC 204508 / S288c)), Q03530; 290,000 compounds, 0.27% hits; yeast membranes, quenched prenylated peptide cleavage fluorescence;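 active = fall in fluorescence gain of 50% or more versus controls, with final raw signal at or below 3038400; inconclusive = same 50% fall but final raw signal above 3038400; inactive = fall in fluorescence gain under 50%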;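 also: plate controls were neutral control wells for no effect and wells lacking membranes for full effect; tested at 10 µM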
eIF4H inh retest = also measured in eIF4H inh; calls as there; inhibition, %; compound at 20 µM; confirmation average;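 mean of two retest wells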
PABP polyA inh retest = recorded beside PABP polyA inh, whose call it bears; inhibition, %; compound at 20 µM; confirmation repeats;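 mean of two retest wells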
MT1-MMP act inh RFP = also measured in MT1-MMP act inh; calls as there; RFP signal change, %; measured here: RFP expression control read;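 0 = vehicle wells; hits needed this value within 50% of zero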
* = called active by the depositor; i = inactive; ? = inconclusive; nt = not tested or not shown; & = joins results of further samples; [ ] = dose if it differs, or a comment. No enrichment for hits; any-hit rate near 2.9%.

SMILES	CSC inhib	Yeast UUG start	PABP polyA inh	HIV Env fusion	eIF4H inh	MT1-MMP act inh	MT1-MMP act inh RFP	Rce1 inh	others
CCOCCCNC(=O)Cc1ccc(-n2c(CC)nc3cccnc32)cc1	0.8	-13.1	10.2	-8.3	27.9	0.7	3.6	i
O=C(COC(=O)C12CC3CC(CC(Cl)(C3)C1)C2)N1CCCCC1	-3.5	-11.1	nt	-9.7	nt	1.6	0.2	nt
O=C(c1cc(-c2ccc(Cl)cc2Cl)on1)N1CCCC1	-0.9	-47.0	-2.4	-79.8	-4.4	-1.2	-5.0	i
NCCCC[C@H]1CNC(=O)C(=O)N1CC1CCCCC1	-9.8	-3.3	4.0	-6.7	2.5	0.1	1.5	i
COc1ccc(-c2cc(C(=O)Oc3ccc([N+](=O)[O-])cc3)c3ccccc3n2)cc1	6.3	3.6	-12.8	-64.7	-11.4	1.9	4.4	i
Cc1nn2c(=O)cc(CSc3ccccc3NC(=O)c3ccccc3)nc2s1	9.9	2.0	2.1	1.6	1.9	-0.1	1.2	i
N#Cc1ccc(S(=O)(=O)N2CCN(C(=O)[C@@H]3CCCN3C(=O)c3cccs3)CC2)cc1	nt	-12.0	nt	1.1	nt	-6.7	1.6	nt
CCOc1ccc2[nH]c3c(NCCOC)ncnc3c2c1	-14.5	nt	-0.9	-12.2	-0.3	9.1	-2.0	i
C=CCNC(=O)Nc1ccc(F)cc1F	-16.5	nt	4.6	4.0	3.5	-3.4	0.2	i
CC1(C)CC(=O)C2=C(C1)N(CCN1CCOCC1)C1=C(C(=O)CC(C)(C)C1)C2c1ccc(Cl)cc1	2.3	-14.8	2.6	i	-20.4	-5.5	1.7	i
CC1CCCC(NC(=O)c2n[nH]c(=O)c3ccccc23)C1C (centres undefined)	-0.8	-19.3	-5.9	-16.6	-19.8	0.3	0.9	i
COC(=O)c1ccccc1S(=O)(=O)NNC(=O)Nc1ccccc1	-8.7	-17.2	6.1	19.9	-7.8	3.6	-0.5	i
CCc1ccc(NC(=O)CN2C(=O)C(=O)N(Cc3ccccc3)C2=O)cc1	-6.0	nt	-2.3	17.8	-5.1	nt	nt	i
CC(C)N(C(=S)NC1CC2CCC1C2)c1ccccc1 (centres undefined)	-15.2	-4.9	-15.8	10.4	-7.6	-0.3	1.0	i
COC(=O)Cc1csc(Nc2ccccc2Cl)n1	nt	-6.7	29.5	nt	-2.2	-0.5	-1.8	i
CC(C)C(=O)OCC(=O)Nc1ccc(N=Nc2ccccc2)cc1	10.8	-6.2	3.0	-19.4	-6.3	12.7	9.3	i
Cn1c(SCC(=O)NC(C)(C)C)nnc1-c1cccc(NC(=O)c2ccccc2F)c1	-0.9	nt	nt	5.4	nt	2.5	4.5	i
CN(CCOc1ccc(-c2ccn(S(=O)(=O)c3cccc4ccccc34)n2)cc1)c1ccccn1	3.3	-5.2	-3.4	?	-2.9	3.8	-2.2	i
CCOC(=O)C1=NN(c2ccccc2)C(=O)C1	-29.6	nt	-6.8	15.0	-1.7	1.2	0.8	i
Cc1ccc(NC(=O)CSc2nc(NS(=O)(=O)c3ccccc3)cc(=O)[nH]2)cc1	-18.0	-21.9	-5.8	nt	57.9	1.4	0.3	nt	eIF4H inh retest=10.0;PABP polyA inh retest=2.4
Clc1ccc(-c2nnn(Cc3nc4ccccc4s3)n2)cc1	8.7	-9.1	-2.6	-55.6	-14.0	1.3	7.5	i
Brc1ccc(OCc2cn3ccccc3n2)cc1	12.0	nt	-1.1	-61.8	5.7	4.8	0.6	i
Nn1c(SCC(=O)NCc2ccccc2)nncc1=O	-4.4	-18.9	-8.6	nt	-4.3	4.1	3.2	i
C[C@@H]1CN([C@@H](C)CO)C(=O)CCCn2nncc2CO[C@@H]1CN(C)C(=O)Nc1ccc(N2CCCCC2)cc1	nt	-20.0&13.7&-6.0	nt	-4.2[16.7 µM]	nt	-0.4	0.6	nt
O=[N+]([O-])c1cc2c(cc1/C=N/NS(=O)(=O)c1ccc(Br)cc1)OCO2	4.9	nt	7.9	11.3	2.5	-3.5	0.4	i
Cc1cccc(C)c1NC(=O)N1CCN(c2nc3ccccc3s2)CC1	18.2	-9.8	4.1	72.0*	1.7	1.2	-14.6	i
COc1ccc(S(=O)(=O)Nc2ccccc2C(=O)NCc2cccnc2)cc1	nt	-22.8	-4.5	-3.9	-6.1	2.9	1.0	i
CCCCCCNC(=O)CCNS(=O)(=O)c1ccc(C)cc1	5.7	nt	2.6	1.3	7.1	2.8	4.9	i
CCOC(=O)CN1C(=O)N[C@@H](c2cccc(C(F)(F)F)c2)[C@@H](C(=O)OC)[C@H]1C	12.1	11.4	nt	-0.6	nt	-0.3	0.0	i
COc1ccc(CCN(C)C(=O)c2cc(S(=O)(=O)N3CCCCCC3)ccc2OC)cc1OC	-14.2	21.8	nt	19.4	nt	-0.4	-3.4	i
CCOC(=O)C1CCCN(C(=O)c2cc(Cl)ccc2Cl)C1 (centres undefined)	-5.5	-22.5	-7.2	nt	1.2	nt	nt	i
CN(C)c1ccc(C2NCC(CCl)O2)cc1 (centres undefined)	-13.4	4.6	18.5	-37.2	-14.5	-2.9	-0.3	nt
COc1cccc(NC(=O)CN2CCN(c3nc(-c4cccc(OC)c4)cs3)CC2)c1	2.5	-18.2	13.4	22.4	-11.5	2.3	-3.0	i
Cc1cc(-c2n[nH]c(=S)n2/N=C/c2ccc(Cl)c([N+](=O)[O-])c2)n[nH]1	-1.7	nt	21.3	-15.5	-0.8	6.3	8.2	i
NC(=O)CC(NC(=O)c1ccccc1)c1ccc(NCc2ccc(F)c(F)c2)c([N+](=O)[O-])c1 (centres undefined)	35.5	-16.0	-11.3	13.8	0.9	2.0	-2.1	i
CN(C)S(=O)(=O)Oc1cccc(C(=O)Nc2ccc(Cl)cc2)c1	9.7	-13.2	-4.5	-24.6	-18.4	-0.2	-18.8	nt
COc1ccc(C(=O)NNC(=O)c2ccccc2[N+](=O)[O-])cc1[N+](=O)[O-]	-3.3	-18.6	5.5	4.2	-6.7	0.4	-0.5	i
CCOC(=O)Cc1c(C)nc2c(-c3ccccc3)c(-c3ccccc3)[nH]n2c1=O	nt	nt	0.9	nt	-1.8	0.1	0.6	i
CC(=O)N1CCN=C1SCc1ccccc1	-14.4	-5.3	-6.3	-411.3	-13.6	-0.3	6.4	i
CC(C)c1ccc(NC(=O)c2n[nH]c(=O)c3ccccc23)cc1	nt	nt	4.2	-40.8	-3.5	1.4	4.8	nt
COc1ccc2c(c1)C(=O)N1[C@H]3c4cc(Cl)ccc4OC[C@@H]3[C@H](c3ccccc3)[C@]1(C)C(=O)N2	34.6	-11.2	nt	48.6	nt	-28.4	-24.4	nt
CCOCCCNC(=O)CN1C(=O)C(CC)Oc2ccccc21 (centres undefined)	-1.2	nt	6.5	nt	-0.1	6.3	3.2	i
C#CCOCCOCCOCCNc1nc(N2CCN(C(=O)[C@H](CC(N)=O)n3cc(C(N)[C@@H](C)CC)nn3)CC2)nc(N2CCN(C(=O)[C@H](CCC(=O)O)n3cc([C@@H](N)CCCCN)nn3)CC2)n1 (some centres undefined)	0.2	17.7	nt	6.4	nt	0.3	2.2	nt
COc1ccccc1NC(=O)C(=O)NCc1ccccc1Cl	10.3	-19.2	-7.9	-19.6	-2.9	12.7	7.7	i
N#Cc1c(NC(=O)C2CC2)sc2c1CCCCC2	9.8	-10.6	-4.9	nt	76.4	0.0	1.7	i	eIF4H inh retest=4.9;PABP polyA inh retest=-4.7
Cc1ccc(C(=O)OCCn2cc(C#N)c(=O)[nH]c2=O)cc1	0.1	nt	-9.8	23.3	6.2	-1.0	-3.0	i
CCN1C(=O)[C@H]2[C@@H](c3ccc(-c4ccc(OC)cc4)c(OC)c3)N[C@@](Cc3ccccc3)(C(=O)OC)[C@H]2C1=O	nt	-1.9	nt	-27.0	nt	-4.2	-6.3	nt
CCN(C(=O)COC(=O)CCc1ccccc1)c1ccccc1	-10.0	-21.1	-9.1	-4.5	-14.6	0.6	3.1	i
Cn1c(=O)n(C)c2cc([N+](=O)[O-])c(N3CCN(C(=O)c4cccc(F)c4)CC3)cc21	-4.8	nt	-4.5	30.2	6.9	3.1	-6.6	i
CCc1nnc2cccc(Cl)n12	-16.0	nt	-11.4	6.3	-0.2	1.3	3.5	i
Cn1c(SCc2cccnc2)nnc1-c1c[nH]c2ccccc12	-2.8	-7.6	3.2	8.6	-6.1	1.7	-0.2	i
Nc1cc(=O)[nH]c(=O)n1CC1CC1	-10.5	-1.0	10.9	-2.1	-12.6	11.4	7.1	i
COC(=O)c1sc2nc(C)cc(C)c2c1N	-0.7	-15.7	5.1	18.5	-2.3	7.7	3.4	i
CC(C)c1nc(-c2ccc([N+](=O)[O-])cc2)cs1	-6.4	-20.3	-5.7	-44.4	-3.4	2.4	-5.3	i
CC(=O)c1sc(NC(=O)C2=NN(c3ccccc3)C(=O)CC2)nc1C	-9.6	nt	9.7	17.5	-4.2	2.1	1.0	i
Cc1cc(NC(=O)CSCC(=O)OC(C)C(=O)c2cc(C)c(C)cc2C)no1 (centres undefined)	9.9	2.2	nt	-26.5	nt	-2.5	-0.9	i
CCOC(=O)C1(Cc2ccc(OC)cc2)CCN(C(=O)CCc2cccnc2)CC1	nt	nt	7.3	-1.2	-0.7	1.5	2.6	i
CC1(C(=O)NS(=O)(=O)c2ccc(F)cc2F)CCN1C(=O)C1(c2ccc(Cl)cc2)CCC1 (centres undefined)	nt	-0.5	nt	8.7	nt	-2.3	-2.3	nt
CC(C)(C)c1cc2nc(N)nc(N)n2n1	8.9	-26.1	7.5	4.0	2.0	1.8	-1.9	i
c1ccc2sc(SN3CCOCC3)nc2c1	-11.2	-5.1	-8.4	nt	-4.2	1.9	2.2	i

(list continues)
SMILES	CSC inhib	Yeast UUG start	PABP polyA inh	HIV Env fusion	eIF4H inh	MT1-MMP act inh	MT1-MMP act inh RFP	Rce1 inh	others
O=C(NCCCN1CCCC1)c1ccc2c(c1)N(Cc1ccccc1F)C(=O)c1ccccc1S2(=O)=O	nt	-2.2	-14.8	2.4	-4.0	-4.3	-4.6	i
O=C(Nc1cc(Cl)cc(Cl)c1)C(NCCO)c1ccccc1 (centres undefined)	-0.8	-16.6	2.4	-23.8	3.8	2.9	1.2	i
COC(=O)C(N)Cc1ccc(OC)c([N+](=O)[O-])c1 (centres undefined)	-14.2	nt	-1.1	-6.4	-1.7	1.7	1.6	i
O=C(Cn1cnc2c(OCc3ccccc3)ncnc21)NCC1CCCO1 (centres undefined)	nt	-16.1	nt	4.6	nt	0.8	0.7	nt
Cn1c(=O)c2c(ncn2CC(=O)N(Cc2ccccc2)c2ccccn2)n(C)c1=O	-11.7	-5.4	-7.2	-16.5	-10.4	4.4	2.4	i

From PubChem BioAssay
